# Compound activity: PubChem, Center for Chemical Genomics, University of Michigan
# HIV TAR-Tat: HIV-1 TAR-Tat binding disruption | HIV-1 TAR RNA, Tat peptide displacement FRET; hits give high values | z-score (test concentration not listed) | 0.6% of 100,000 active;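 further: score is relative to mean and SD of negative controls; some compounds called inactive have numbers as strong as hits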
# CDC25B CDK2 inh: human CDC25B-CDK2/CyclinA binding inhibition; P30305+P24941; HTRF CDC25B-CDK2/CyclinA binding, anti-His/anti-Flag; hits give high values; z-score (no concentration beside the values); 0.72% of 94,000 active; AID 1259370;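 further: score is relative to mean and SD of negative controls; strong numbers were not always called active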
# The depositor's hits bear a star; . = no result given.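 How the source made its calls: active means z-score from 3 up in half or more of its runs; inactive means the rest.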
SMILES	HIV TAR-Tat	CDC25B CDK2 inh
CCOC(=O)NC1c2ccccc2Sc2ccc(Cl)cc21 (configuration not stated)	.	-8.51
CN(C)CCCN1C(=O)C(=O)/C(=C(/O)c2ccc(F)cc2)C1c1cccs1 (configuration not stated)	0.74	-0.76
CCN1CCN(c2c(S(=O)(=O)c3ccc(Cl)cc3)cnc3ccc(C)cc23)CC1	-0.24	0.19
Cn1cc(-c2cc3n(n2)CCC(=O)N3CC(=O)NCCN2CCOCC2)c2ccccc21	1.41	.
CCOC(=O)C1(CC(=O)c2ccc(F)cc2)C(=O)Oc2ccccc2C1c1ccccc1 (configuration not stated)	-0.5	-1.35
Cc1ccc(NS(=O)(=O)c2ccc(-c3cnc(C4CC4)o3)cc2)cc1Cl	1.23	.
Cc1ccc(-c2nc(CSc3nc4ncccc4o3)c(C)o2)cc1	0.96	.
Cn1cccc1C(=O)/C(C#N)=C/c1ccc(C#N)cc1	.	-1.05
O=C(CN1C(=O)COc2ccc(S(=O)(=O)N3CCOCC3)cc21)NC1CCCCC1	-1.11	.
CC(C)(C)OC(=O)NCCNC(=O)c1ccc(OC(F)(F)F)cc1	.	0.22

# Single records (already shown). Values in the order: HIV TAR-Tat, CDC25B CDK2 inh
# Shown for `CN(C)CCCN1C(=O)C(=O)/C(=C(/O)c2ccc(F)cc2)C1c1cccs1` (configuration not stated) → 0.74, -0.76
# Shown for `Cn1cccc1C(=O)/C(C#N)=C/c1ccc(C#N)cc1` → ., -1.05
# Shown for `CC(C)(C)OC(=O)NCCNC(=O)c1ccc(OC(F)(F)F)cc1` → ., 0.22
# Shown for `Cn1cc(-c2cc3n(n2)CCC(=O)N3CC(=O)NCCN2CCOCC2)c2ccccc21` → 1.41, .
# Shown for `CCOC(=O)C1(CC(=O)c2ccc(F)cc2)C(=O)Oc2ccccc2C1c1ccccc1` (configuration not stated) → -0.5, -1.35

# Next part:
SMILES	HIV TAR-Tat	CDC25B CDK2 inh
CCc1ccc(CN2CCN(C3CCCCC3)CC2)cc1	0.81	-0.93
CN(C)CCCn1c(-c2ccccc2)nc(=S)c2c1CC(C)(C)OC2	0.5	0.42
CCn1nnc2c(=O)oc3ccccc3c21	.	0.57
Cc1cc(C)c(S(=O)(=O)N(C(=O)c2ccncc2)c2ccc3oc(=O)sc3c2)cc1C	0.55	-0.45
C=CCN1C=C(OC(=O)c2ccc(CN3CCOCC3)cc2)c2ccccc2S1(=O)=O	0.44	-0.65
CCOC(=O)CSc1ccsc1[N+](=O)[O-]	1.53	.
Cc1c(C(=O)O)cc(C(C)(C)C)n1CCCNC(=O)OC(C)(C)C	.	-1.55
CCCCC1CCC(C(=O)Nc2nonc2C)CC1 (configuration not stated)	0.77	0.93
Cc1ccc(C)c(Nc2nc(C)cc(=O)[nH]2)c1	0.86	-0.74
COc1ccc(CC/C(C)=C2/C(=O)Nc3ccccc32)cc1	.	-1.27

SMILES	HIV TAR-Tat	CDC25B CDK2 inh
O=C(NCC(c1cccs1)S(=O)(=O)c1cccs1)C(=O)NC1CC1 (configuration not stated)	2.19	.
Cc1cc(C)c(NC(=O)CSc2nnc(NC(=O)c3ccco3)s2)c(C)c1	-0.78	-0.94
CC(=O)/C=C(\C)NCCN/C(C)=C/C(C)=O	.	-2.61
O=C1C2CCCN2C(c2ccc(Br)cc2)N1c1ccc(Cl)cc1 (configuration not stated)	-1.2	-2.51
CCSc1nnc(Cn2c(=O)sc3ccccc32)n1C	.	-0.26
CC1CCc2c(sc3c2CSC(C(=O)Nc2ccc(F)cc2F)=C3)C1 (configuration not stated)	-1.95	.
O=C(O)c1ccc(-n2nnnc2SCc2ccc(F)cc2)cc1	2.37	.
O=C(NC1CCCc2ccccc21)C1CCN(c2nc3cccnc3s2)CC1 (configuration not stated)	-0.24	.
CSc1[nH]n2c(=O)cc(C)nc2c1-c1nc(-c2ccc(C)cc2)no1	1.05	-1.47
Cc1[nH]c2ccc(Cl)cc2c(=O)c1CN1CCCCCC1	.	1.9

SMILES	HIV TAR-Tat	CDC25B CDK2 inh
O=C(CCS(=O)(=O)c1cccc2nsnc12)NCC1CCCO1 (configuration not stated)	1.28	-1.37
Cc1ccccc1NS(=O)(=O)c1cn(C)c(C)n1	1.99	.
COC(=O)c1ccc(C2NC(=O)N(C)C(C)=C2C(=O)OCCc2ccccc2)cc1 (configuration not stated)	.	0.17
COCCN1C(=O)C(=O)/C(=C(\O)c2ccc(OC)cc2)C12C(=O)N(C)c1ccccc12 (configuration not stated)	1.56	-0.41
CCOC(=O)C(=CNNC(=O)CCc1ccc(O)cc1)C(=O)OCC	.	-0.15
CC1=C(c2ccc(C(C)C)cc2)S(=O)(=O)NC1=NCCc1ccccc1	-3.26	-0.23
O=C(CCCN1C(=O)c2ccccc2Sc2ncccc21)NC1CCCCC1	-1.76	.
O=C(C1CC1)n1nc(-c2ccco2)nc1NCc1cccc(Br)c1	1.04	-4.37
O=[N+]([O-])C(C(c1ccccc1)c1ccccc1)[N+](=O)[O-]	.	-0.71
O=c1c(S(=O)(=O)c2ccc(Cl)cc2)c[nH]c2ccccc12	-1.47	1.46

SMILES	HIV TAR-Tat	CDC25B CDK2 inh
CC(=O)N1CCc2cc(Br)cc(S(=O)(=O)Nc3noc4ccccc34)c21	2.53	-1.36
COc1ccccc1NC(=O)CCC1=NS(=O)(=O)c2ccccc2N1	-0.47	.
Cc1ccc(Nc2cc(C)nc(-n3cc([N+](=O)[O-])cn3)n2)cc1	2	.
CCC1(C)CC(=O)c2c(ccc3oc(C(=O)N4CCCC4)c(C)c23)O1 (configuration not stated)	0.64	-1.44
CCOC(=O)C1CCN(c2ncnc3c2sc2cccc(F)c23)CC1	0.93	.
O=C(O)c1ccc(CSCc2ccccc2)o1	0.54	-1.55
CCOC(=O)C1C(=O)CC(C)(O)C(C(=O)OCC)C1c1ccc(OC)c(OC)c1 (configuration not stated)	2.19	.
Cn1c(=O)oc2cc(S(=O)(=O)NCCC(=O)NC3CCCCCCC3)ccc21	.	0.04
CCC(C)NC(=O)c1ccc2snnc2c1 (configuration not stated)	2.26	0.09
COc1ccc(S(=O)(=O)c2cn(C)c3cc(N4CCN(C)CC4)c(F)cc3c2=O)cc1	-0.21	.

SMILES	HIV TAR-Tat	CDC25B CDK2 inh
Cc1cc(C)c(S(=O)(=O)Nc2ccc3c(c2)oc(=O)n3C)c(C)c1	2.12	.
Cn1cnc([N+](=O)[O-])c1SCc1csc2ccccc12	.	-2.16
CN(C)CCNC(=O)NC1(C(F)(F)F)Oc2ccc(Cl)cc2O1 (configuration not stated)	.	0.42
CSc1cccc(NC(=O)Cn2c(=O)n(Cc3ccco3)c(=O)c3oc4ccccc4c32)c1	0.93	.
CC1=C(C(=O)Nc2ccc(C)cn2)C(c2ccc(Br)cc2)C2=C(CC(C)(C)CC2=O)N1 (configuration not stated)	0.77	-1.42
c1ccc(-c2nnn3c2nc(NCCc2c[nH]c4ccccc24)c2ccccc23)cc1	0.81	-1.76
COc1cc(NC(=O)CSc2nc3nccnc3c(=O)n2CC2CCCO2)cc(OC)c1 (configuration not stated)	1.54	-1.31
CCOc1ccccc1-n1nnc(-c2nc(-c3ccccc3F)no2)c1N	0.61	.
O=C(O)Cc1ccc(O)c(O)c1	.	-1.78
CC(C)c1ccc(NC(=O)CSc2nccn2C)cc1	.	-1.34

SMILES	HIV TAR-Tat	CDC25B CDK2 inh
C=CCOc1ccc(-c2nn(-c3ccccc3)cc2C2NC(=O)NC(C)=C2C(=O)OC)cc1C (configuration not stated)	.	0.31
O=C(COc1ccccc1Cl)N(Cc1ccco1)Cc1cccs1	1.81	0.82
Cc1cc(C(=O)Oc2cc(C)c(Cl)c(C)c2)no1	.	-1.54
O=C1CCc2cc(S(=O)(=O)Nc3cccc4c3CCCC4)cc3c2N1CC3	1.54	.
C/C=C1\[C@H]2C=C(C)C[C@]1(N)c1ccc(=O)[nH]c1C2	2.86	.
CCCc1cc(=O)[nH]c(Nc2ccc(C(C)C)cc2)n1	0.33	-0.61
Cc1nnc(NC(=O)NS(=O)(=O)c2ccccc2C(F)(F)F)s1	.	-2.76
CN1C(C(=O)Nc2ccc3c(c2)OCO3)=CC(c2ccc3c(c2)OCO3)=NS1(=O)=O	1.02	-0.78
Cn1ncc2c(NCc3ccc(F)cc3)nc(N3CCN(CCO)CC3)nc21	0.43	.
Cc1cccc(C)c1Nc1scc(C)[n+]1C	.	-1.42

SMILES	HIV TAR-Tat	CDC25B CDK2 inh
O=C(CN1C(=O)CSc2cccn2-c2ccccc21)N1CCCCC1	1.27	.
Cc1ccc(-c2noc(-c3cc4c(COC(=O)C(C)C)cnc(C)c4oc3=O)n2)cc1	-5.68	.
O=C1c2cccnc2C(=O)N1Cc1ccc(S(=O)(=O)NCCc2ccc(Cl)cc2)cc1	0.08	.
Cc1cc(NC(=O)CSc2nnc3cc(C)c4ccccc4n23)no1	.	-0.62
CCn1ncc(C2=NOC(C(=O)N3CCN(c4ccc(F)cc4)CC3)C2)c1C (configuration not stated)	0.27	-1.08
Cc1cccc(S(=O)(=O)Nc2cccc(-c3ccc(N4CCOCC4)nn3)c2)c1	1.03	.
C=CCN1C(=O)/C(=C/c2cn(Cc3cccc4ccccc34)c3ccccc23)SC1=S	.	-3.5
COc1ccc(C)cc1Nc1nn2nnnc2c2ccccc12	0.08	.
Cn1ccc2cc(S(=O)(=O)N3CCN(C(=O)Nc4ccccc4F)CC3)ccc21	0.59	.
Cc1ccc(-c2nc(C)sc2CC(=O)O)cc1	-0.46	-2.1

SMILES	HIV TAR-Tat	CDC25B CDK2 inh
O=C(c1ccc(N2CCc3ccccc32)s1)N1CCC(N2CCCCC2)CC1	0.31	.
CN(C)c1ccc(C2Nc3ccc4ncccc4c3C3=C2C(=O)CC(C)(C)C3)cc1 (configuration not stated)	.	-0.56
CSc1nsc(SCC(=O)Nc2ncc(Br)s2)n1	0.74	-0.9
CCC(C(=O)N1CCN(c2cc(C)ccc2C)CC1)n1nc(C)n2c(cc3occc32)c1=O (configuration not stated)	0.41	-2.91
O=C(Oc1cccc2c1C(=O)C=CC2=O)c1ccccc1	.	0.13
Cc1c2occ(-c3ccccc3)c2cc2c1oc(=O)c1ccccc12	0.07	1.57
Cc1nc(SC(C)C(=O)Nc2ccccc2)c2sc3nc4c(cc3c2n1)COC(C)(C)C4 (configuration not stated)	-0.7	.
Cn1c(=O)oc2cc(S(=O)(=O)Nc3cccnc3)ccc21	.	-0.83
CCc1nc(-c2csc(S(=O)(=O)Nc3ccc(C)cc3C)c2)no1	0.67	.
COc1ccc(-n2c(-c3ccccc3F)n[nH]c2=S)cc1	.	0.5

SMILES	HIV TAR-Tat	CDC25B CDK2 inh
Cn1c(=O)[nH]c2cc(-c3noc(Cc4ccc(F)cc4)n3)ccc21	1.46	.
Cc1ccc(S(=O)(=O)CCc2nnc(NC(=O)c3ccco3)s2)cc1	.	-0.84
Cc1ccc(C2/C(=C(\O)c3ccc(F)cc3)C(=O)C(=O)N2c2nnc(C)s2)cc1 (configuration not stated)	.	0.19
c1ccc(C2CCCC(c3ccccc3)S2)cc1 (configuration not stated)	-0.36	0.27
Cc1cn2c(=O)c(S(=O)(=O)N3CCc4ccccc43)c(C)nc2s1	-0.35	.
Cc1nc(N2CCCC2)c2c(C(=O)N3CCN(c4ccc(F)cc4)CC3)c(C)oc2n1	0.45	.
CCOC(=O)C1CCCN(C(=O)C2=Cc3sc4c(c3CS2)CCCC4)C1 (configuration not stated)	-1.23	.
Cc1ccccc1CSc1nc2ccncc2[nH]1	1.84	1.06
CCCN1CCN(C(=O)c2cc3c(s2)-c2ccccc2S(=O)(=O)C3)CC1	0.59	0.28
Cc1onc(-c2ccccc2)c1CNS(=O)(=O)c1ccccc1	.	-1.43

SMILES	HIV TAR-Tat	CDC25B CDK2 inh
CCC(=O)Nc1nnc(SCc2cc(=O)n3nc(C4CC4)sc3n2)s1	0.63	.
Cc1ccc(-c2cnnc(-n3nc(C)c4c3NC(=O)CC4c3ccc(C)cc3)n2)cc1 (configuration not stated)	1.52	-0.47
c1ccc(-n2nnnc2Oc2cccc(CNC3CC3)c2)cc1	0.27	.
CCCCN1CN=C(Nc2nc3ccccc3o2)NC1	0.35	-1.51
COC(=O)CN(C)c1nnc(N)s1	0.25	-2.03
CC1=C(C(=O)Nc2ccc(Cl)cc2C(=O)N2CCN(C(=O)c3ccco3)CC2)SCCO1	-0.83	.
CN(C)c1ccc(C2NC(=O)c3c(sc4c3CCCC4)N2)cc1 (configuration not stated)	-0.92	0.26
Cc1ccc(C)c(N2CCN(S(=O)(=O)c3ccc4c(c3)C(C(C)C)C(=O)N4)CC2)c1 (configuration not stated)	0.3	.
COc1ccccc1NC(=O)N1CCCC1c1cccs1 (configuration not stated)	0.19	-1.54
O=C1CN(c2ccccc2O)CC1=O	-0.18	-0.59

# A second format for part of the listing above:
CCCCN1CN=C(Nc2nc3ccccc3o2)NC1
  HIV TAR-Tat = 0.35
  CDC25B CDK2 inh = -1.51

COC(=O)CN(C)c1nnc(N)s1
  HIV TAR-Tat = 0.25
  CDC25B CDK2 inh = -2.03

# Later entries
SMILES	HIV TAR-Tat	CDC25B CDK2 inh
COC(=O)C1CCN(c2ncc3c(=O)n(-c4ccccc4)c(=O)[nH]c3n2)CC1	1.57	0.46
Cc1c(C(=O)N2CCOCC2)sc2nc3n(c(=O)c12)CCC3	1.57	.
COc1ccc(-c2csc3ncnc(Nc4ccc(OC)c(OC)c4)c23)cc1	2.04	.
COc1ccc(Br)cc1CNCc1cccc(OC)c1OC	2.33	-0.17
O=C(O)CCN1C(=O)C2C3C=CC(C3)C2C1=O (configuration not stated)	.	0.53
CC(C)Cn1c2c(c(O)c(C(=O)Nc3nccs3)c1=O)CCCC2	0.88	.
Cc1nc2c(c(C)c1CCC(=O)N1CCN(C)CC1)c(=O)n(C)c(=O)n2C	1.8	-2.51
CCN(Cc1c(C(=O)O)nnn1-c1nonc1N)c1ccccc1	0.79	-1.09
COC(=O)C1=C(OC(=O)c2ccccc2)c2ccccc2S(=O)(=O)N1C(C)C	0.9	0.11
